CDC25B CDK2 inh: primary biochemical HTRF screen for blockers of M-phase inducer phosphatase 2 binding to CDK2/cyclin A. z-score (test concentration not listed). 94,000 compounds, 0.72% hits. HTRF CDC25B-CDK2/CyclinA binding, anti-His/anti-Flag; stronger effect = higher value;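 further: score is relative to mean and SD of negative controls; strong numbers were not always called active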
HIV TAR-Tat: TAR RNA-Tat peptide displacers, HIV-1, primary screen, biochemical, FRET, FAM/TAMRA-labeled Tat; HIV-1 TAR RNA, Tat peptide displacement FRET; stronger effect = higher value; z-score (test concentration not listed); 100,000 compounds, 0.6% hits; AID 1259389, 2018;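 further: score is relative to mean and SD of negative controls; some compounds called inactive have numbers as strong as hits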
* marks the source's active call; other numbers are inactive results; . = not tested or not shown.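 How the source made its calls: active means z-score from 3 up in half or more of its runs; inactive means the rest.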

No.	smiles	CDC25B CDK2 inh	HIV TAR-Tat
1	COCCNc1cc(N2CCN(c3ccccc3OC)CC2)c2noc3c2c1C(=O)c1ccccc1-3	0.91	3
2	Cc1ccc(CNC(=O)c2cc3n(n2)CC(C)(C(=O)NC2CCCC2)N(C)C3=O)o1 (configuration not stated)	.	1.8
3	Cc1ccccc1-c1cc(C(=O)O)c2c(-c3ccccc3)[nH]nc2n1	.	2.7
4	O=C(Oc1ccc(Cl)cc1)c1ccc2nsnc2c1	-1.2	-0.52
5	COc1ccc2nc3oc(C(=O)N(C)c4ccc(Cl)cc4)cc3cc2c1	-1.8	.
6	Cc1nc2ccccc2n1C(=O)N1CCOCC1	-1.7	-0.43
7	CCN(C(=O)Cn1c(=O)oc2cc(S(=O)(=O)NC3CCCC3)ccc21)c1ccccc1	-0.63	0.79
8	CC1(C)C=Cc2cc(-c3noc(-c4ccccc4)n3)ccc2O1	-1.9	.
9	Cc1ccc(C(=O)N2CCN(C(=O)c3ccco3)CC2)cc1NC1=NC2CS(=O)(=O)CC2S1 (configuration not stated)	0.08	1.1
10	CC1=C(C#N)C(c2ccccc2)C2=C(CC(c3ccccc3)CC2=O)N1 (configuration not stated)	-0.96	-0.29
11	CCOC(=O)COc1cc(O)c2c(=O)cc(-c3ccccc3)oc2c1	-0.1	0.99
12	C=CCSc1nc2c(cc1C#N)C(=O)CC(C)(C)C2	-2.4	.
13	Cc1nc(-c2ccc(S(=O)(=O)NCc3ccc(N(C)C)cc3)cc2)co1	.	-0.24
14	Cc1nnsc1C(=O)N/N=C/c1ccccc1Cl	0.47	.
15	Clc1ccc(-c2nnc(C(c3ccccc3)N3CCN(c4ncccn4)CC3)o2)cc1 (configuration not stated)	.	0.72
16	O=C(CSc1nnc(-c2cccnc2)o1)Nc1ccc(Br)cc1	.	1.4
17	COc1ccc(C2/C(=C(\O)c3ccc(Cl)cc3)C(=O)C(=O)N2CCCN(C)C)cc1OC (configuration not stated)	-1.2	2.5
18	O=C(CCC(=O)N1Cc2ccccc2Oc2ncccc21)N1CCN(c2ccccn2)CC1	.	1.1
19	COC(=O)c1ccc(/C=N/NC(N)=S)n1-c1ccc(F)cc1	-1.5	.
20	CCc1ccccc1NS(=O)(=O)c1ccc2c(c1)CCN2S(C)(=O)=O	.	0.93
21	CCCOc1ccc(C2=CSC3=NCCN23)cc1	-1.1	1.1
22	Cc1cc(NS(=O)(=O)c2cc(-c3nc(C)c(C(=O)N4CCOCC4)s3)n(C)c2C)no1	.	1.7
23	NS(=O)(=O)c1ccc(Sc2ccccc2)c([N+](=O)[O-])c1	-1.9	.
24	Cc1nc(N2CCCCC2)cc(N2CCN(S(=O)(=O)c3ccc(F)cc3)CC2)n1	-1.5	0.34
25	Cc1cccc(N2CCN(Cc3nnc(-c4cccc(Br)c4)o3)CC2)c1C	-0.93	0.09
26	CN(C)c1ccc(C2C3=C(CC(C)(C)CC3=O)Nc3nc(SCc4ccccc4)nn32)cc1 (configuration not stated)	-1.1	0.79
27	Cc1cc(S(=O)(=O)[C@H]2CS(=O)(=O)C[C@@H]2N2CCC(C)CC2)ccc1F	-0.56	-0.52
28	CCOC(=O)N1CCN(S(=O)(=O)c2cc3c4c(c2)CC(=O)N4CCC3)CC1	.	1.7
29	CC(C)CCn1c(=O)c2ccc(C(=O)NC(C)C)cc2n2c(=O)[nH]nc12	-1.7	1.3
30	COc1ccc(S(=O)(=O)N2CCc3cc4cccc(C)c4nc32)c(C)c1	-0.68	0.06
31	C(=N\N=C\c1cccnc1)/c1cccnc1	-1.7	.
32	COC(=O)COC(=O)c1ccc(Oc2nc(N(C)C)nc(N(C)C)n2)cc1	-0.37	2.8

One compound at a time, from the list above. Screens in order: CDC25B CDK2 inh, HIV TAR-Tat
Record of COc1ccc(S(=O)(=O)N2CCc3cc4cccc(C)c4nc32)c(C)c1 → -0.68, 0.06
Record of Cc1cc(S(=O)(=O)[C@H]2CS(=O)(=O)C[C@@H]2N2CCC(C)CC2)ccc1F → -0.56, -0.52
Record of CC(C)CCn1c(=O)c2ccc(C(=O)NC(C)C)cc2n2c(=O)[nH]nc12 → -1.7, 1.3
Record of Cc1cccc(N2CCN(Cc3nnc(-c4cccc(Br)c4)o3)CC2)c1C → -0.93, 0.09
Record of COC(=O)COC(=O)c1ccc(Oc2nc(N(C)C)nc(N(C)C)n2)cc1 → -0.37, 2.8

Next compounds follow.
No.	smiles	CDC25B CDK2 inh	HIV TAR-Tat
33	CCn1cc2c(c1-c1ccc(Cl)cc1)c(=O)n(C)c(=O)n2C	-2	1.1
34	Cc1nc2nc(-c3ccccc3)nn2c(Sc2ccccc2N)c1C	.	0.68
35	COc1cccc2c1OC(N)=C(C#N)C2	-0.23	0.95
36	CCOC(=O)CNC(=S)Nc1ccccc1N	-0.26	.
37	O=C1CCCc2cc(S(=O)(=O)NCC3CCC(C(=O)NC4CCCC4)CC3)ccc2N1 (configuration not stated)	.	-0.11
38	O=C(Nc1noc2ccccc12)Nc1noc2ccccc12	1.5	0.95
39	Cn1cc(S(=O)(=O)N2CCc3ccccc32)cc1C(=O)NCc1ccccn1	.	0.41
40	COCc1cc(CN2CCN(c3ccccc3OC)CC2)c(O)c2ncccc12	-0.7	.
41	Cc1ccc(CNC(=O)C(C)n2nc(C)c3c(C)n(-c4ccccc4)nc3c2=O)o1 (configuration not stated)	.	0.55
42	Cc1cc(=O)[nH]c(Sc2c(-c3ccccc3)c3ccccc3[nH]c2=O)n1	-0.12	.
43	COCCN1C(=O)Cn2cccc2C1C(=O)NC1CCC(C)CC1 (configuration not stated)	1.1	0.28
44	CCCCn1c(N2CCCCCC2)nc2c1c(=O)[nH]c(=O)n2C	-1.9	.
45	Cc1cccn2c(=O)c3cc(C(=O)N4CCCCC4)sc3nc12	0.1	.
46	CCN(CC)CCNC(=O)C1=C(C)C(=O)OC12CCCCC2	0.14	0.7
47	O=C(Nc1cccc(Cl)c1)N1CCc2ccccc2C1	1.4	1.7
48	CCn1c(COc2ccc(OC)cc2)nnc1SCc1cc(=O)c2cccc(OC)c2[nH]1	.	0.57
49	Cc1ccc(Cc2cn3cc(-c4ccc(Br)cc4)nc3s2)cc1	-2	-2.1
50	Cc1cc(C)c2c(=O)cc(C(=O)NC3CCS(=O)(=O)C3)oc2c1 (configuration not stated)	-2.1	0.53
51	O=C(COc1ccc2c(=O)c(-c3ccccc3Cl)coc2c1)OCc1ccccc1	1.4	1.5
52	Cc1cc(=O)n2[nH]c(C)c(-c3ccc(Cl)cc3)c2n1	-3.7	.
53	Cc1cc(C)c2c(CC(=O)N(Cc3ccco3)C3CCS(=O)(=O)C3)coc2c1 (configuration not stated)	-1.2	1.9
54	CC1=C(c2ccc(C(C)C)cc2)S(=O)(=O)N(CC(=O)Nc2ccc3c(c2)OCCO3)C1=O	.	0.67
55	O=C1CC(c2cccs2)CC2=C1C(c1ccc(F)cc1)Nc1ccccc1N2 (configuration not stated)	.	0.26
56	O=c1c(-c2ccccc2)c(O)c2cccc3c4c(n1c23)CCCC4	-0.8	.
57	O=C(NNc1c([N+](=O)[O-])cc(C(F)(F)F)cc1[N+](=O)[O-])c1ccco1	-3.5	.
58	CCCCNC(=O)c1oc2ccc(S(=O)(=O)N(C)C3CCCCC3)cc2c1C	0.71	.
59	O=C(Nc1ccc(F)cc1)N1CCCC(CN2CCc3ccccc3C2)C1 (configuration not stated)	.	1.6
60	CC1=C(c2ccccc2)S(=O)(=O)N=C1Nc1cc(C)ccc1C	-1.6	-0.75
61	Cc1nn(CC(=O)Nc2ccc(F)cc2F)c(=O)c2cccn12	-2.5	1.5
62	O=S(=O)(NCCc1csc(-c2cccc(F)c2)n1)c1ccc(Br)cc1	.	1.2
63	CCCCC(=O)Nc1c(-c2cccs2)nc2ccccn12	-1.1	-0.09
64	CCN(CC)CCNC(=O)CCc1nnc2ccc(N3CCCCC3)nn12	.	-0.4
65	CCOc1ccc2c(C)[nH]c(=O)cc2c1	-0.55	0.01
66	Cn1cnc(S(=O)(=O)Nc2ccc(F)cc2)c1	.	2
67	O=C(Nc1noc2ccccc12)C(c1ccccc1)c1ccccc1	-0.71	0.95
68	CCCCCCOC(=O)c1ccc(OC(=O)c2cncc(Br)c2)cc1	-1.2	0.82
69	Cc1cc(C)c2c(n1)sc1c(=O)n(-c3ccccc3F)nnc12	2.3	0.41
70	CCOc1ccc2c(=O)c(Oc3cc(C)ccc3C)coc2c1	-2.2	.
71	CCOC(=O)CSc1ncnc2c1sc1nc(N3CCOCC3)c3c(c12)CC(C)(C)OC3	-0.21	.
72	CCCC(=O)Nc1sc2c(c1-c1nc3ccccc3s1)CCN(C(=O)OCC)C2	.	-2.8
73	Cc1nnc(Oc2cncc(Cl)c2)c2ccccc12	.	1
74	Cc1cc(C)cc(NC(=O)CSCc2cc(=O)n3oc(C)cc3n2)c1	.	-0.47
75	COc1ccc(Cl)cc1NS(=O)(=O)c1ccc2c(c1)NC(=O)CC(C)S2 (configuration not stated)	.	1.1
76	O=c1ccc(-c2ccc(S(=O)(=O)NC3CCN(Cc4ccccc4)CC3)o2)n[nH]1	.	0.25
77	CCCOc1ccc(C2C3=C(CC(C)(C)CC3=O)Nc3cc4c(cc32)OCCO4)cc1 (configuration not stated)	-1	8.2
78	O=C1CC(c2cccnc2)c2cc3c(cc2N1)OCO3 (configuration not stated)	-1.7	-0.07
79	Cc1nc(C)c(-c2cc(C(=O)O)n[nH]2)s1	-1.4	0.63
80	CCOC(=O)C(C)Sc1nnc(CSc2ncccn2)n1-c1ccccc1 (configuration not stated)	-0.72	2.2

The list goes on, overlapping the part above by two compounds.
No.	smiles	CDC25B CDK2 inh	HIV TAR-Tat
79	Cc1nc(C)c(-c2cc(C(=O)O)n[nH]2)s1	-1.4	0.63
80	CCOC(=O)C(C)Sc1nnc(CSc2ncccn2)n1-c1ccccc1 (configuration not stated)	-0.72	2.2
81	O=C(Nc1ccccc1Cl)c1cc2ccc3cccnc3c2[nH]1	.	0.91
82	CC(C)(C)c1ccc(NC(=O)N2CCN(CCN3CCOCC3)CC2)cc1	-0.72	.
83	CC(C)CCNC(=O)Nc1ccc2c(c1)N(S(=O)(=O)c1ccccc1)CC2	.	0.67
84	CCOC(=O)c1ccc(NC)c(N)c1	-1.1	.
85	O=C(CN1CCSc2ccccc21)N1CCc2ccccc21	.	1.8
86	CC(=O)Nc1nnc(Sc2c(C)nn(-c3ccc4nncn4n3)c2C)s1	.	1.6
87	Cc1[nH]c2ccccc2c1C(=O)C(=O)NCCSc1c[nH]c2ccccc12	-0.74	.
88	Cc1nc(N)sc1-c1csc(Nc2ccc(Br)cc2)n1	-0.42	-4.2

Reformatted: entries from further up
81) O=C(Nc1ccccc1Cl)c1cc2ccc3cccnc3c2[nH]1
  CDC25B CDK2 inh: .
  HIV TAR-Tat: 0.91

82) CC(C)(C)c1ccc(NC(=O)N2CCN(CCN3CCOCC3)CC2)cc1
  CDC25B CDK2 inh: -0.72
  HIV TAR-Tat: .

(cont.)
No.	smiles	CDC25B CDK2 inh	HIV TAR-Tat
89	O=C(Nc1ccc(SCc2nc3ccccc3[nH]c2=O)cc1)c1cccs1	.	-0.41
90	CCOC(=O)C1=C(c2cccs2)OC(N)=C(C#N)C1c1cccnc1 (configuration not stated)	-1.7	.
91	COC(=O)CSc1ncc2c(n1)-c1ccccc1N(Cc1ccccc1C)S2(=O)=O	.	-0.7
92	COc1cc2c(cc1OC)CN(C(=O)C1CCCN1S(=O)(=O)c1ccc(F)cc1)CC2 (configuration not stated)	-1.2	-0.43
93	O=C1c2cccnc2C(=O)N1Cc1ccc(F)cc1S(=O)(=O)Nc1cccnc1	.	0.51
94	CCOc1ccc(C2c3c(oc4ccccc4c3=O)C(=O)N2Cc2ccc3c(c2)OCO3)cc1OC (configuration not stated)	0.13	-0.47
95	CCOC(=O)c1cc(-c2ccc(S(=O)(=O)N3CCc4ccccc4C3)s2)on1	.	-0.5
96	O=C(COc1ccccc1)Oc1ccc(-n2cnnn2)cc1	-1.3	-1.3
97	O=C(Nc1ccc2nc3n(c(=O)c2c1)CCCCC3)C(=O)N1CCOCC1	-1.6	.
98	N=C1C(c2nc3ccccc3s2)=C(O)CN1Cc1ccc(Cl)cc1	-0.64	2.3
99	FC(F)(F)c1nnc2sc(-c3ccccn3)nn12	-0.26	-0.46
100	Cc1nnc(SCCCC(=O)c2ccc(C(C)(C)C)cc2)s1	-0.85	-1
101	Cn1ncc2c(Nc3ccccc3)nc(N3CCN(c4ccccc4)CC3)nc21	.	1.9
102	O=c1cc2nc(-c3ccccc3)nc(SCCOc3ccc(Cl)cc3)n2[nH]1	.	0.28
103	COc1ccc(NC(=O)C2=CSCCO2)c(OC)c1	-0.41	-0.03
104	CSc1cccc(NC(=O)CC(C)CC2=NS(=O)(=O)c3ccccc3N2)c1 (configuration not stated)	.	0.3
105	CCOC(=O)C1=C(C)NC2=C(C(=O)CCC2)C1c1ccc(Br)cc1 (configuration not stated)	-3.3	0.91
106	c1ccc(-c2cn3c(n2)SCC3)cc1	0.19	.
107	Cc1cncn1CCc1nc2c3ccccc3nc(=S)n2[nH]1	-0.47	.
108	CS(=O)(=O)c1ccc(C2=C(c3ccccc3)C(=O)OC2)cc1	.	2.7
109	CCOc1ccccc1C1C=C(C(=O)O)Nc2ncnn21 (configuration not stated)	-0.06	-0.61
110	c1cc(CSc2nc3ccccc3[nH]2)nc(CSc2nc3ccccc3[nH]2)c1	-1.1	.
111	CCN(C(=O)c1ccc(N2C(=O)C(C)(C)CS2(=O)=O)cc1)C1CCS(=O)(=O)C1 (configuration not stated)	-1	-0.84
112	CN(Cc1ccccc1)S(=O)(=O)c1cc(Br)cc2c1N(C(=O)C1CC1)CC2	0.44	.
113	O=C(CCC(=O)n1ncc2ccccc21)NCCC1=CCCCC1	-0.61	2.4
114	Cc1cc2ccccc2c(=O)n1CC(=O)NCC(=O)NCC1COc2ccccc2O1 (configuration not stated)	0.47	.
115	CC(=O)/C(=C\N(C)C)c1ncccc1[N+](=O)[O-]	0.07	.
116	Clc1ccc(Sc2c(Cl)cncc2Cl)cc1	-1.4	.
